Screening data from PubChem.
MgrA DNA FP – modulators of Staphylococcus aureus MgrA DNA binding; inhibition, %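 (about 10 µg/mL by stock and volumes)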; 0.13% of 84,000 active; fluorescence polarization;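 active means above 50% in either of two replicates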;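 further: 0% = protein plus DNA without compound and 100% = DNA alone without protein; higher means less MgrA bound to DNA so lower polarization; one replicate is shown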
S aureus helic – blocks Staphylococcus aureus DNA helicase; purified S. aureus helicase, fluorescence unwinding assay; about half of the hits fall short of the stated cut; inhibition, %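 (tested at about 80 µM)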; 0.05% of 120,000 active; AID 485395;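 active means both duplicates at 50% or more, or one of them with a favoured structure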;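 further: 0% = mean of negative control wells and 100% = mean of positive control wells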
* marks the source's active call; other numbers are inactive results; . = not tested or not shown. The list is partial; rates above refer to the full screens.

structure	MgrA DNA FP	S aureus helic
COc1ccc(C(C#N)N2CCC(c3ccccc3)=N2)cc1 (stereo unspecified)	2.7	14.0
Cc1ccc(-c2nn(-c3ccccc3)cc2CN(Cc2ccccc2)C(=O)c2ccco2)o1	-1.1	6.0
COc1ccc(C2=NN(CC(=O)Nc3cc(C)ccc3C)C(=O)CC2)cc1	3.1	15.0
CC1=C(C#N)C(c2c[nH]c3ccccc23)C2=C(CCCC2=O)N1 (stereo unspecified)	.	9.0
O=C(Nc1ccccc1)N1CCCCC1	1.1	2.0
O=C(O)CCC(=O)Nc1ccc(O)c(C(=O)O)c1	.	3.0
Cc1ccc(N/C=C(\C#N)c2nc3ccccc3[nH]2)cc1	-0.5	.
COc1ccc(/C=C2\Oc3ccccc3N(CC(=O)N3CCOCC3)C2=O)cc1	1.9	5.0
COc1cccc(NC(=O)N(Cc2nc3ccccc3c(=O)[nH]2)C2CCCCC2)c1	-1.2	-7.0
OC1(c2cc(C(F)(F)F)cc(C(F)(F)F)c2)CC1	-0.2	.
O=C(COc1cc2oc(=O)cc(-c3ccccc3)c2cc1Cl)NC1CC1	-5.2	-3.0
CCOC(=O)CC1C(=O)C=Nc2ccccc21 (stereo unspecified)	-0.6	.
Nc1nc2ccccc2n1CCOc1ccccc1	-1.8	-31.0
S=C(Nc1ccccc1)N1CCNC2NCCN(C(=S)Nc3ccccc3)C21 (stereo unspecified)	4.3	11.0
O=C1CCCCCN1Cc1nnc(SCCN2C(=O)c3ccccc3C2=O)o1	.	8.0
CCOc1ccccc1NC(=O)CSc1ccc(C)cc1	-5.6	9.0
COc1ccc(CN(C)c2nc(C(F)(F)F)nc3ccccc23)c(OC)c1	.	9.0
CCC(Sc1nc2ncccc2[nH]1)C(=O)NCc1ccco1 (stereo unspecified)	1.0	4.0
Cc1nc2ccccc2c(=O)n1-c1ccc(F)c(NC(=O)c2ccco2)c1	.	10.0
CCCNC(=O)Oc1noc2ccc(Cl)cc12	4.5	.
COc1ccccc1C1CC(c2c(-c3ccccc3)c3cc(Cl)ccc3[nH]c2=O)=NN1C(=O)CCCC(=O)O (stereo unspecified)	-3.1	.
Cc1nc(N)nc(C(F)(F)F)c1Br	.	-2.0
O=S(=O)(N1CCCCC1)N1CCNCC1	-0.3	3.0
OC(CN=Cc1ccccc1)c1ccccc1 (stereo unspecified)	1.5	7.0
Cc1ccc(CC(=S)N2CCOCC2)cc1	.	-20.0
COc1ccc(C(=O)C(C)Sc2nnc(-c3ccccc3OC)n2C)cc1 (stereo unspecified)	.	-18.0
OC(CNCC1(N2CCCCC2)CCCCC1)COCc1ccccc1F (stereo unspecified)	.	6.0
COc1ccc(C)c2sc(NN)nc12	.	10.0
CN(CC(=O)Nc1ccc(F)c(F)c1F)C(=O)c1cccnc1N1CCCC1	.	5.0
COc1ccc(C)c2sc(=NC(=O)C(C)(C)C)n(C)c12	.	3.0

Among those listed so far, 2 have a COOH group.
structure	MgrA DNA FP	S aureus helic
O=C(O)CCC(=O)Nc1ccc(O)c(C(=O)O)c1	.	3.0
COc1ccccc1C1CC(c2c(-c3ccccc3)c3cc(Cl)ccc3[nH]c2=O)=NN1C(=O)CCCC(=O)O (stereo unspecified)	-3.1	.

For reference, 2 of the compounds above.
structure	MgrA DNA FP	S aureus helic
COc1ccc(C(C#N)N2CCC(c3ccccc3)=N2)cc1 (stereo unspecified)	2.7	14.0
Cc1ccc(-c2nn(-c3ccccc3)cc2CN(Cc2ccccc2)C(=O)c2ccco2)o1	-1.1	6.0

Going on with the list:
structure	MgrA DNA FP	S aureus helic
COc1ccc(C(=O)Nc2ccc(Cl)c(-c3nc4ccccc4s3)c2)cc1[N+](=O)[O-]	5.2	.
CCc1nc(SCC(=O)Nc2cccc(C(F)(F)F)c2)c(C#N)cc1C	2.0	.
C#CCOc1nc(OCC#C)nc(N(c2ccccc2)c2ccccc2)n1	0.0	6.0
Nc1nnnn1NCc1ccc(-c2ccc(F)cc2)o1	-0.3	18.0
Cc1ccc(NC(=O)N2CCCCC2C)cc1Cl (stereo unspecified)	-2.4	-3.0
Cc1cccc(C2=NC(C(F)(F)F)(C(F)(F)F)N=C(c3ccco3)O2)c1	.	41.0
O=C(Oc1ccc(Cl)cc1Sc1cc(Cl)ccc1OC(=O)c1cccs1)c1cccs1	0.7	.
CCn1c(=O)cc(SCC(=O)Nc2ccc(F)cc2)c2ccccc21	.	-28.0
COc1ccc(-c2[nH]c3c(=O)n(C)c(=O)n(C)c3c2O)cc1OC	-1.7	4.0
NC(=O)C1CCN(C2=NC(=O)/C(=C/c3cn(-c4ccccc4)nc3-c3cccs3)S2)CC1	0.2	21.0
CCC(C)NC(=O)c1cc2c(=O)n(CC)c3ccccc3c2s1 (stereo unspecified)	-1.8	3.0
Cn1c(C(=O)OCC(=O)NCc2cccs2)cc2sccc21	-15.2	11.0
CN(C)C(=S)NC(C)(C)C	.	-1.0
CCSc1nnc(NC(=O)C2CC(=O)N(c3ccccc3OC)C2)s1 (stereo unspecified)	.	12.0
O=C(O)C1CN(Cc2ccccc2)C1	-0.1	2.0
CC1=C(C(=O)OCc2ccccc2)C2(O)C(=O)c3ccccc3C2(O)N1 (stereo unspecified)	-4.3	-14.0
CCC(=O)Oc1cc2c(C(=O)OC(C)C)c(C)oc2cc1Br	.	18.0
O=C(Oc1ccc(Cl)c(Cl)c1)c1ccccc1F	0.0	.
Cc1onc(-c2ccccc2)c1-c1csc(Nc2ccccc2Cl)n1	-2.2	.
Cc1ccc(C)c(CN2C(=O)C(C(C)C(=O)NCCc3ccc(Cl)cc3)Sc3ccccc32)c1 (stereo unspecified)	1.2	6.0
O=c1cc(N2CCCCC2)[nH]c(=O)n1Cc1ccc(F)cc1	.	-7.0
O=C(NC1CCCCCCC1)c1nnc(-c2cccc(Cl)c2)o1	-0.7	-3.0
N#Cc1ccccc1Sc1ccccc1C(=O)N1CCN(CC(=O)N2CCCC2)CC1	.	-2.0
COc1ccc(C2CCCCCN2C(=O)CCn2c(=O)oc3ccccc32)cc1 (stereo unspecified)	.	-25.0
CC(=O)Nc1ccc(NC(=O)Cn2cnc3c(oc4ccccc43)c2=O)cc1	1.3	6.0
CCn1c(=O)cc(SCC(=O)NCCCN2CCN(c3ccc(F)cc3)CC2)c2ccccc21	.	-16.0
CCOc1ccc(/C=c2/sc3n(c2=O)C(c2cccs2)C(C(=O)OC)=C(C)N=3)cc1OC(C)=O (stereo unspecified)	1.5	.
O=C(O)Cc1csc(Nc2ccccc2F)n1	-6.8	3.0
COC(=O)CSc1cc(C)nc(SC)n1	-1.0	16.0
O=C(O)COc1cccc(/C=C2/SC(=Nc3ccccc3Cl)NC2=O)c1	3.2	.

(further entries)
structure	MgrA DNA FP	S aureus helic
O=C(O)c1ccccc1NC(C(=O)O)c1ccccc1 (stereo unspecified)	-1.1	.
O=C(Nc1ccccc1-c1nnc(-c2ccc(Cl)cc2)o1)c1ccc(F)cc1	0.1	.
CCOc1ccccc1N(C)C(=O)c1cc2c(=O)n(CC)c3ccccc3c2s1	2.4	9.0
Cc1cc(NC(=O)COc2coc(CN3CCN(c4ccc(F)cc4)CC3)cc2=O)no1	.	1.0
O=C(O)c1ccc2c(c1)C1C3CCC(C3)C1C(c1ccccc1)N2 (stereo unspecified)	4.7	16.0
CCOC(=O)c1c(C)[nH]c(C)c1C(=O)COC(=O)C1CC2CCCC(C1)C2=O (stereo unspecified)	.	-9.0
COc1ccccc1C1=NN(C(=O)CCC(=O)O)C(c2ccccc2)C1 (stereo unspecified)	-0.3	.
O=C(COC(=O)c1ccco1)Nc1cccc2ccccc12	-0.7	1.0
NC(=O)Cc1nc(-c2cc3ccccc3oc2=O)cs1	.	11.0
Cc1ccc(-c2nnc(-c3cc(C)on3)o2)cc1	0.2	.
CCC1(CC)N([O-])C(C)=C(c2ccccc2)[N+]1=O	.	4.0
Oc1cccc(C=Nc2ccccc2N2CCOCC2)c1	.	-16.0
COc1ccc(-c2nnc3ccc(SCc4ccccc4F)nn23)cc1OC	.	-21.0
O=S(=O)(c1ccc(-c2ccccn2)s1)N1CCCC1c1ccc(F)cc1 (stereo unspecified)	0.9	.
NC(=S)N/N=C/c1ccc(F)c(Cl)c1	3.4	.
CCOC(=O)c1cc(-c2ccccc2)sc1NC(=O)CSc1nccn1C	-0.5	.
Nc1scc[n+]1CC(=O)c1ccc(Cl)c(Cl)c1	-3.0	10.0
Cn1c(/C=C(\C#N)C(N)=S)ccc1-c1ccc(Br)cc1	6.1	7.0
O=C(CSc1nnnn1Cc1ccccc1)Nc1ccccc1	0.0	-14.0
Cn1ccnc1SCC(=O)c1ccc(Cl)cc1	-7.6	5.0
CC1CN(c2nnc(-c3cccs3)c3ccccc23)CC(C)O1 (stereo unspecified)	.	-19.0
CC(C)(C)N(Cc1ccccc1)C(=O)c1cccs1	3.1	21.0
c1ccc(OCc2nn3c(-c4ccccc4)nnc3s2)cc1	4.3	13.0
CC1(C)C(C(=O)O)N2C(=O)CC2S1(=O)=O (stereo unspecified)	.	-35.0
CCCc1cnc(N2CCCN(C(=S)Nc3cccnc3)CC2)nc1	-2.7	.
CC(Oc1ccc(/C=C2/SC(=O)N(C)C2=O)cc1)C(=O)O (stereo unspecified)	-4.3	16.0
NC(=O)C1CCCCN1C(=S)Nc1cccc(C(F)(F)F)c1 (stereo unspecified)	.	-1.0
O=C(c1ccccc1)c1ccccc1C(=O)N1CCN(C2CCS(=O)(=O)C2)CC1 (stereo unspecified)	.	-13.0
Cc1ccccc1NC(=O)NC1(C(=O)N2CCC(C(N)=O)CC2)CCCCC1	-1.2	13.0
COc1cc(C(=O)N2CCCN3C(=O)c4ccccc4C23)cc(OC)c1OC (stereo unspecified)	1.1	.

The listing continues:
structure	MgrA DNA FP	S aureus helic
Cc1cn(C/C=C\c2ccccc2)c(=O)n(C/C=C/c2ccccc2)c1=O	3.5	11.0
O=C(NCCCn1ccnc1)C12CC3CC(CC(C3)C1)C2	0.1	4.0
O=C(Cn1cc(C(=O)c2cccs2)c2ccccc21)Nc1ccccc1C(F)(F)F	0.4	5.0
CC(=O)Nc1ccc(S(=O)(=O)N(C)CC(=O)NC2CCCc3ccccc32)cc1 (stereo unspecified)	.	5.0
CCOC(=O)c1cc(CC)sc1/N=C/C1C(=O)c2ccccc2C1=O	2.0	7.0
c1ccc(OCc2nc3ccccc3s2)cc1	1.7	8.0
CCCN1C(=O)/C(=C\C(=O)c2cccs2)c2ccccc21	0.8	9.0
CCOC(=O)c1sc2nc(N)c(C#N)c(-c3ccc(OC)c(OC)c3)c2c1N	-2.0	.
C=CCn1c(SCC(=O)O)nnc1-c1sc2ccccc2c1Cl	1.3	6.0
NC(=O)c1ccccc1NC(=O)COc1ccc2oc3c(c2c1)CCCC3	-1.7	0.0
COc1ccc(OCCn2c(N)nc3ccccc32)cc1	-3.0	-18.0
O=C(NCC(c1cccnc1)N1CCOCC1)c1ccco1 (stereo unspecified)	-1.0	9.0
O=C(CN1CCCCC1)OCCCC1CCCCC1	.	36.0
COc1cccc2c1c(NC(=O)c1cc(C)oc1C)nn2C	-1.0	.
CN(C)c1ccc(C(=O)Nc2cc(C(F)(F)F)ccc2-n2cncn2)cc1	-0.9	-12.0
Cc1cc(C)n(C(=S)CSc2nc(-c3ccc(F)cc3)cc(-c3ccco3)c2C#N)n1	5.2	8.0
CCN(CC)S(=O)(=O)c1ccc(C(=O)NCC(=O)OC)cc1	.	-5.0
COC(=O)c1sccc1N1C(=O)C=C(C)C1=O	8.4	.
O=c1[nH]nc(-c2ccc(Cl)cc2)c2ccccc12	0.0	7.0
O=S(=O)(Oc1ccc(Cl)c(Cl)c1)c1ccc(-c2ccc(S(=O)(=O)Oc3ccc(Cl)c(Cl)c3)s2)s1	0.8	.
CCC(CO)NC1=CC(=O)CCC1 (stereo unspecified)	0.9	-2.0
COc1ccc(C(C)NCc2ccco2)cc1 (stereo unspecified)	-0.1	9.0
Cc1cccc(CC2(Cc3cccc(C)c3)C(=O)OC(C)(C)OC2=O)c1	-1.1	8.0
O=C(Nc1cccc(F)c1)C(Cc1ccccc1)n1cccc1 (stereo unspecified)	-0.2	7.0
CCOC(=O)Nc1ccc2c(c1)N(C(=O)CN(C)C)c1ccccc1S2	.	13.0
COC(=O)C(C(=O)OC)c1ccc(C#N)c(C#N)c1	-0.4	14.0
CC(=O)Nc1ccc(OCC(O)CN2CCN(c3ccc(C)c(Cl)c3)CC2)cc1 (stereo unspecified)	-0.6	11.0
CCOC(=O)N1CCC(NC(=O)c2cc(C(=O)NCc3cccc(Cl)c3)ccc2CO)CC1	.	-42.0
S=C(NCCN1CCOCC1)c1ccc(Cl)cc1	3.8	-24.0
O=C1C2C3CC4C5C3C1C5C1(OCCO1)C42 (stereo unspecified)	.	15.0

Other entries
structure	MgrA DNA FP	S aureus helic
COc1ccccc1NC(=O)CSc1nc2c(oc3ccccc32)c(=O)n1Cc1ccc(F)cc1	3.0	6.0
CC(=O)NC(Cc1c[nH]c2ccccc12)C(=O)N1CCN(c2cccc(C(F)(F)F)c2)CC1 (stereo unspecified)	.	-3.0
COc1ccc(NC(=O)c2ccc(N3CCOCC3)nc2)cc1	0.3	.
CC(C)COC(=O)CNc1n[nH]c(=S)[nH]c1=O	-2.3	-2.0
O=C(O)c1ccccc1C(O)c1ccccc1 (stereo unspecified)	.	8.0
CN1C(=O)C2C=CC=CC2NC1=S (stereo unspecified)	.	-22.0
CCOC(=O)c1sc(N2C(=O)c3ccccc3C2=O)c(C#N)c1C	1.8	22.0

An excerpt of these results, with values under each structure.
Every second line gives: MgrA DNA FP	S aureus helic
CCOC(=O)c1sc(N2C(=O)c3ccccc3C2=O)c(C#N)c1C
    1.8	22.0
CN1C(=O)C2C=CC=CC2NC1=S (stereo unspecified)
    .	-22.0
